Source: PubChem (National Center for Advancing Translational Sciences (NCATS))
Marburg entry inh – qHTS for inhibitors of binding or entry into cells for Marburg Virus | Potency, µM (series often up to 37.8 µM), inactives show at the highest dose activity change, negative = inhibition, hits mostly inhibitors | AID 540276, 2011 | Marburg virus pseudotyped entry inhibition, cell reporter; control for the full effect not named in the record; about a third of the inactives were read at about 46 µM | 300,000 tested, 1.8% active; active = well fitted inhibition curve with a large enough effect; inconclusive = small, poorly fitted or top-dose-only effect, or effect the other way; inactive = flat fitted curve, though single readings scatter; tested in HEK293 cells; about a fifth of its hits are not listed in these tables; also: % is scaled to controls: 0 for no effect and ±100 for the full control effect; luciferase read-out
NS1 inh – qHTS Assay for Inhibitors of Influenza NS1 Protein Function; Potency, µM (highest dose often 46.1 µM), without a hit: at the top dose activity, positive = more growth; S. cerevisiae slowed by influenza A NS1, growth recovery by OD600; 270,000 tested, 0.4% active; also: actives are rising curves; nearly all actives have a fitted effect of over 50% in size
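Growth recovery, yeast-based: influenza A NS1 expressed in S. cerevisiae causes slow growth, and suppressors are detected by OD600. The parent strain without NS1 is used as positive control.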
Cruzain noTriton – qHTS Assay for Promiscuous and Specific Inhibitors of Cruzain (without detergent). AID 1476, 2009. purified cruzain, Z-FR-AMC fluorescence, no detergent. Potency, µM, without a hit: max response, negative = inhibition, hits mostly inhibitors. Cruzipain (Trypanosoma cruzi), P25779. 200,000 tested, 2.3% active; active = well fitted curve in the direction sought with a large enough effect; inconclusive = small, poorly fitted or top-dose-only effect, or another doubt; inactive = no such curve, though single readings can be large; an effect the other way counts as inactive or inconclusive;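 also: plate controls were enzyme without inhibitor for no effect and buffer without enzyme for full effect; nearly all actives have a fitted effect of over 40% in size; top concentration of the series not given in the record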
Target sequence (P25779 123-467 limits assumed): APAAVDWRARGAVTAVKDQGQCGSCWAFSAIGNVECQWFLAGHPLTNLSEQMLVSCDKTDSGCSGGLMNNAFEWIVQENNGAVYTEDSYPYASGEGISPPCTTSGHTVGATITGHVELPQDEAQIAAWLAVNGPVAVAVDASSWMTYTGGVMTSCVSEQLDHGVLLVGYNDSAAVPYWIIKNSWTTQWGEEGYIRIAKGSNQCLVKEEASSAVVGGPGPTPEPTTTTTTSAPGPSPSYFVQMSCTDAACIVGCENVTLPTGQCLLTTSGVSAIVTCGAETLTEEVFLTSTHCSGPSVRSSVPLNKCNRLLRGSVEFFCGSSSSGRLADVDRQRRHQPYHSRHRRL
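Detergent-free condition (0.00005% Triton X-100) in acetate buffer pH 5.5 with DTT. 1.5 nM enzyme and compound were pre-mixed 15 min, then 2 uM Z-FR-AMC substrate added; reaction progress from fluorescence change between first and third reads (60 s).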
RE007 growth inh – qHTS Assay for Inhibitors of the HIV-1 protein Vpr; S. pombe RE007 Vpr strain, BacTiter-Glo ATP luminescence, 24 h; control for the full effect not named in the record; Potency, µM (doses to about 92.2 µM), for inactives: top-dose activity change, negative = less growth; 360,000 tested, 0.21% active; AID 651644, 2012; active = well fitted falling curve with a large enough effect; inconclusive = small, poorly fitted or top-dose-only effect; inactive = no such curve, though single readings can be large or run the other way;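 also: % is scaled to controls: 0 for no effect and ±100 for the full control effect; nearly all actives have a fitted effect of over 50% in size; the assay follows cell death caused by Vpr and the record does not say whether a fall means rescue or toxicity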
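Fission yeast strain RE007, carrying one chromosomally integrated HIV-1 vpr copy, was seeded at OD 0.01 in PMG+AL medium with 23 nL pinned compound. After 24 h at 30 °C and 99% humidity, viability was read by BacTiter-Glo luminescence.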
Cruzain Triton – qHTS Assay for Promiscuous and Specific Inhibitors of Cruzain (with detergent) | Cruzipain (Trypanosoma cruzi), P25779 | purified cruzain, Z-FR-AMC fluorescence, 0.01% Triton | Potency, µM, without a hit: max response, negative = inhibition, actives largely listed as inhibitors | 200,000 tested, 0.43% active | AID 1478, 2009; active = well fitted curve in the direction sought with a large enough effect; inconclusive = small, poorly fitted or top-dose-only effect, or another doubt; inactive = no such curve, though single readings can be large; an effect the other way counts as inactive or inconclusive;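 also: plate controls were neutral wells for no effect and buffer without enzyme for full effect; nearly all actives have a fitted effect of over 40% in size; top concentration of the series not given in the record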
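Cruzain (1.5 nM) preincubated 15 min at RT with compound in 100 mM sodium acetate pH 5.5, 5 mM DTT, 0.01% Triton X-100. Reaction started with 2 uM Z-FR-AMC; AMC fluorescence (ex 360/em 450 nm) change over 60 s gave rate.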
StopGo reporter – High Throughput Screening for Foot and Mouth Disease Virus Antivirals; AID 1159524, 2015; 410,000 tested, 1.2% active; human cells with a luciferase reporter of 2A StopGo recoding; control for the full effect not named in the record; Potency, µM (top dose mostly 57.9 µM), for inactives: at the highest dose signal change, negative = less light; active = well fitted falling curve with a large enough effect; inconclusive = small, poorly fitted or top-dose-only effect; inactive = no such curve, though single readings can be large or run the other way; tested in HEK293T cells; also: % is scaled to controls: 0 for no effect and ±100 for the full control effect; nearly all actives have a fitted effect of over 45% in size; luciferase light after 4 h
SARS PLP yeast – qHTS of Yeast-based Assay for SARS-CoV PLP | 330,000 tested, 0.19% active | Potency, µM (highest dose often 32.9 µM), inactives show at the top dose activity, positive = growth rescue | S. cerevisiae expressing SARS-CoV PLpro, growth rescue; control for the full effect not named in the record | AID 485353, 2010; also: 0% is about no effect; nearly all actives have a fitted effect of over 55% in size; growth read by luminescence after 48 h
LASV entry inh – qHTS for Inhibitors of binding or entry into cells for Lassa Virus; Lassa virus pseudotype entry inhibition, cell reporter; control for the full effect not named in the record; 300,000 tested, 1.2% active; Potency, µM (series often up to 37.9 µM), inactives show at the highest dose activity change, negative = inhibition, most hits filed as inhibitors; AID 540256, 2011; active means well fitted inhibition curve with a large enough effect; inconclusive means small, poorly fitted or top-dose-only effect, or effect the other way; inactive means flat fitted curve, though single readings scatter; tested in HEK293 cells; also: % is scaled to controls: 0 for no effect and ±100 for the full control effect; nearly all actives have a fitted effect of over 50% in size; luciferase read-out
Active calls of the source: *; ? = inconclusive; nt = no result given; & = joins results of further samples; [ ] = dose if it differs, or a comment. Unless noted, calls follow the shape of the dose curve; as a rule, active means well fitted rising curve with a large enough effect; inconclusive means small, poorly fitted or top-dose-only effect; inactive means no such curve, though single readings can be large or run the other way. Potency is read from the fitted curve at half-maximal effect.

(1) O=C(CSc1n[nH]c(-c2ccncc2)n1)c1cccc([N+](=O)[O-])c1
(2) CCOC(=O)c1sc(=S)n(C)c1NC(=O)c1ccc(OC)cc1
(3) CCCc1[nH]nc2c1C1(C(=O)N(CC(N)=O)c3ccccc31)C(C(=O)OC)=C(N)O2 (stereo not given)
(4) CC1C/C(=C/c2cccs2)C(=O)/C(=C/c2cccs2)C1 (stereo not given)
(5) Cc1ccccc1Nc1nc(N)nc(CN(C)Cc2ccccc2Cl)n1
(6) COc1ccc(S(=O)(=O)N/N=C(/C)c2ccc(C)o2)cc1
(7) C#CCNc1ccc(C(=O)OCC)cc1
(8) N#Cc1ccc(-c2ccccc2)nc1SCCN1CCOCC1

| compound no. | 1 | 2 | 3 | 4 | 5 | 6 | 7 | 8 |
| --- | --- | --- | --- | --- | --- | --- | --- | --- |
| Marburg entry inh | -17%[46.1 µM] | 4% | 19% | 1% | ? | 9%[46.1 µM] | nt | -5%[46.1 µM] |
| NS1 inh | 13% | -8% | 5% | -19% | 3% | nt | 1% | 5% |
| Cruzain noTriton | nt | nt | -3% | -16% | -10% | nt | nt | -4% |
| RE007 growth inh | -5% | -5% | -18% | -13% | -6% | 3% | -8% | -13% |
| Cruzain Triton | nt | nt | -1.2% | -13% | 0.5% | nt | nt | -7.1% |
| StopGo reporter | -20% | -22% | -4% | 13% | 24% | 32%[activator] | 49%[activator] | -29% |
| SARS PLP yeast | 0% | 0% | -8% | 3% | 8% | nt | 1% | 3% |
| LASV entry inh | 11%[46.1 µM] | 17% | -11% | -1% | ? | -5% | nt | -1% |

(9) COCC(=O)Oc1c(S(=O)(=O)c2ccccc2)c(C)nn1C(C)(C)C
(10) CC(C)(C)c1nc(SCC(=O)NCc2ccco2)c2ccccc2n1
(11) O=C(OCc1ccccc1)/C(=C/c1cccc2ccccc12)NC(=O)c1ccccc1
(12) O=C(Cc1cccc2ccccc12)NCC(=O)Nc1ccccc1F
(13) COc1ccc(NC(=S)N2CCC(N(C)CC3CCCO3)CC2)cc1 (stereo not given)
(14) Cc1ccccc1NC(=S)NNC(=O)c1ccncc1
(15) COc1ccc(F)cc1C(=O)C1CCCN(Cc2ccc(Oc3ncccn3)cc2)C1 (stereo not given)
(16) NC(=S)N/N=C/c1c[nH]c2ccc(OCc3ccccc3)cc12

| compound no. | 9 | 10 | 11 | 12 | 13 | 14 | 15 | 16 |
| --- | --- | --- | --- | --- | --- | --- | --- | --- |
| Marburg entry inh | 5%[46.1 µM] | -22% | 15% | -18%[46.1 µM] | 6% | 2%[46.1 µM] | ? | nt |
| NS1 inh | 0% | -48% | 1% | 0% | 7% | 11% | 1% | 16% |
| Cruzain noTriton | nt | -14% | ? | nt | 3% | nt | nt | nt |
| RE007 growth inh | -5% | -19% | 7% | -14% | 4% | 8% | 3% | -14% |
| Cruzain Triton | nt | -4.7% | -7.9% | nt | 3.4% | nt | nt | nt |
| StopGo reporter | -18% | -23% | 22% | -1% | -5% | 7% | -26% | ? |
| SARS PLP yeast | 3% | -7% | 22% | 22% | 3% | 0% | 0% | 9% |
| LASV entry inh | 9%[46.1 µM] | 0% | ? | -22%[46.1 µM] | 0% | nt | 1% | nt |

(17) CCc1ccc(NCc2cc3ccc(OC)cc3n(CC(=O)Nc3ccc(C)c(Cl)c3)c2=O)cc1
(18) COC(=O)C1CCN(C(=O)Cn2nnc(-c3cccc(F)c3)n2)CC1
(19) Cc1cc(NS(=O)(=O)c2ccc(NC(=O)C(C)Oc3cc(C)c(Cl)c(C)c3)cc2)no1 (stereo not given)
(20) Cc1ccc(-n2c(CCC(=O)O)ccc2-c2cccs2)cc1C
(21) Cc1cc(=O)oc2c3c(cc(OCC(=O)NCCC(=O)O)c12)OC(C)(C)CC3
(22) Cc1ccc(S(=O)(=O)NN2C(=O)/C(=C\c3ccc(Cl)cc3)SC2=S)cc1
(23) CCCCN(C)C(=O)c1ccc2c(c1)S(=O)(=O)c1ccccc1C2=O
(24) CCOc1ccc(CCNC(=O)c2cccc(N3CCCC3=O)c2)cc1OCC

| compound no. | 17 | 18 | 19 | 20 | 21 | 22 | 23 | 24 |
| --- | --- | --- | --- | --- | --- | --- | --- | --- |
| Marburg entry inh | nt | 12%[46.1 µM] | -2% | 28%[46.1 µM] | nt | -2%[46.1 µM] | 26%[46.1 µM] | -13% |
| NS1 inh | nt | 4% | -5% | -10% | 3% | -11% | -4% | 0% |
| Cruzain noTriton | 25µM* | nt | nt | -13%&7% | nt | nt | nt | 6% |
| RE007 growth inh | nt | -22% | 4% | -24% | 12% | -9% | 4% | 13% |
| Cruzain Triton | -3.0% | nt | nt | -14%&-14% | nt | nt | nt | 0.8% |
| StopGo reporter | -4% | 34%[activator] | -13% | 46%&-4%[activator] | -9% | -24% | 5% | -2% |
| SARS PLP yeast | nt | -2% | 5% | -6% | 0% | 2% | -1% | 0% |
| LASV entry inh | -21%[46.1 µM] | 2% | 0% | 11%[46.1 µM] | nt | -18% | -25%[46.1 µM] | -10% |

(25) O=C1CCCN1c1ccc(S(=O)(=O)N2CCC(c3ccccc3)CC2)cc1
(26) Cc1ccc(-n2nnnc2SCC(=O)N2Cc3ccccc3CC2C(=O)O)cc1 (stereo not given)
(27) COc1ccc([N+](=O)[O-])cc1NC1CCN(C(=O)c2cccs2)CC1
(28) COc1ccccc1NS(=O)(=O)c1ccc(O)c(NC(=S)NCC2CCCO2)c1 (stereo not given)
(29) CCN(CC)CCCNC(=O)/C=C/C(=O)O
(30) O=S(=O)(NCCn1ccc2ccccc21)c1ccccc1
(31) Cn1c(=O)c2c(nc(C(O)c3ccccc3)n2C)n(C)c1=O (stereo not given)
(32) COc1ccccc1-c1c(C)nn2c(NCCN3CCCC3)cc(C)nc12
(33) COc1cccc(OCC(O)CN2CCN(c3ccccn3)CC2)c1 (stereo not given)
(34) Cc1ccccc1SCC(=O)NNC(=O)c1ccccc1O
(35) O=C(Nc1ccc(S(=O)(=O)Nc2nccs2)cc1)c1ccc(F)cc1

| compound no. | 25 | 26 | 27 | 28 | 29 | 30 | 31 | 32 | 33 | 34 | 35 |
| --- | --- | --- | --- | --- | --- | --- | --- | --- | --- | --- | --- |
| Marburg entry inh | -27% | nt | -22%[46.1 µM] | 1%[46.1 µM] | 19%[46.1 µM] | nt | ? | nt | ? | nt | 18%[46.1 µM] |
| NS1 inh | -5% | 0% | 5% | 1% | 6% | 8% | nt | 3% | 5% | 5% | 2% |
| Cruzain noTriton | 4% | nt | nt | nt | nt | 10% | nt | 4% | 16% | nt | nt |
| RE007 growth inh | -2% | -3% | -2% | 2% | 10% | 2% | 2% | 2% | -12% | -1% | 8% |
| Cruzain Triton | 6.2% | nt | nt | nt | nt | -2.7% | nt | -7.5% | -2.0% | nt | nt |
| StopGo reporter | ? | -14% | -17% | -20% | 3% | 27% | -8% | -10% | -16% | 0% | 14% |
| SARS PLP yeast | 1% | 0% | 0% | -2% | 0% | -10% | nt | -5% | -6% | ? | 2% |
| LASV entry inh | -26%[14.3 µM] | nt | ? | -2% | 3% | nt | -5% | nt | -1% | nt | nt |

Another view of some results above:
The line under a structure holds: Marburg entry inh	NS1 inh	Cruzain noTriton	RE007 growth inh	Cruzain Triton	StopGo reporter	SARS PLP yeast	LASV entry inh
(24) CCOc1ccc(CCNC(=O)c2cccc(N3CCCC3=O)c2)cc1OCC
  -13%	0%	6%	13%	0.8%	-2%	0%	-10%
(25) O=C1CCCN1c1ccc(S(=O)(=O)N2CCC(c3ccccc3)CC2)cc1
  -27%	-5%	4%	-2%	6.2%	?	1%	-26%[14.3 µM]
(26) Cc1ccc(-n2nnnc2SCC(=O)N2Cc3ccccc3CC2C(=O)O)cc1 (stereo not given)
  nt	0%	nt	-3%	nt	-14%	0%	nt
(27) COc1ccc([N+](=O)[O-])cc1NC1CCN(C(=O)c2cccs2)CC1
  -22%[46.1 µM]	5%	nt	-2%	nt	-17%	0%	?
(28) COc1ccccc1NS(=O)(=O)c1ccc(O)c(NC(=S)NCC2CCCO2)c1 (stereo not given)
  1%[46.1 µM]	1%	nt	2%	nt	-20%	-2%	-2%
(29) CCN(CC)CCCNC(=O)/C=C/C(=O)O
  19%[46.1 µM]	6%	nt	10%	nt	3%	0%	3%
(30) O=S(=O)(NCCn1ccc2ccccc21)c1ccccc1
  nt	8%	10%	2%	-2.7%	27%	-10%	nt
(31) Cn1c(=O)c2c(nc(C(O)c3ccccc3)n2C)n(C)c1=O (stereo not given)
  ?	nt	nt	2%	nt	-8%	nt	-5%
(32) COc1ccccc1-c1c(C)nn2c(NCCN3CCCC3)cc(C)nc12
  nt	3%	4%	2%	-7.5%	-10%	-5%	nt
(33) COc1cccc(OCC(O)CN2CCN(c3ccccn3)CC2)c1 (stereo not given)
  ?	5%	16%	-12%	-2.0%	-16%	-6%	-1%
(34) Cc1ccccc1SCC(=O)NNC(=O)c1ccccc1O
  nt	5%	nt	-1%	nt	0%	?	nt
(35) O=C(Nc1ccc(S(=O)(=O)Nc2nccs2)cc1)c1ccc(F)cc1
  18%[46.1 µM]	2%	nt	8%	nt	14%	2%	nt
